Bioassay records deposited in PubChem by several laboratories.
Ecoli growth – blocks Escherichia coli growth | OD600, 23 h; hits give low values | OD600 absorbance (no concentration beside the values) | 330,000 tested, 0.21% active;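 active = OD600 absorbance below the run mean of sample wells minus 3.6 SD, in any replicate, cut at about 0.56 in these data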;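 note: stock transfer was 300 nL into about 60 µL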
A1 inh – inhibitors of the anti-apoptotic protein A1, read as caspase activation | MEF A1-2A-BIM cells, Caspase-Glo 3/7 luminescence, 3 h; percent of clofoctol response, vehicle zero | caspase activation, % (test concentration not listed) | 330,000 tested, 0.066% active | AID 2462;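 active = over half of replicate activation scores above 10%, or exactly half above 10 with the replicate mean above 10; inconclusive = replicate mean below 10 yet half the replicates above 10; inactive = over half of replicates below 10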;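 note: wells of about 30 µL received 50 nL stock; many hits fall short of the cut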
T cruzi inh – T. cruzi replication inhibition; T. cruzi beta-gal in NIH3T3, luminescence, 90 h; inhibition, % (concentration not given with the values); 300,000 tested, 1.4% active; AID 1885;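 active = mean inhibition across valid replicates above about 55%, limit read from the data; inconclusive = mean below that limit but half or more replicates reach it; inactive = mean below it, under half of replicates reach it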;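 note: signal also drops with host cell toxicity which is not excluded here; 0% = plate median of DMSO wells and 100% = zero luminescence signal; higher percent means less beta-gal luminescence so fewer parasites; stock transfer was 50 nL into about 50 µL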
UCH37 inh – blocks the human deubiquitinase UCH37; Q9Y5K5; purified proteasome/UCH37, Ub-AMC cleavage fluorescence; inhibition, % (test concentration not listed); 330,000 tested, 0.33% active; AID 588478;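 active = mean of two replicates above 20%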;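 note: 0% = compound-free wells with enzyme and 100% = wells lacking proteasome; stock transfer was 100 nL into about 20 µL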
Target sequence (Q9Y5K5 whole entry, looked up): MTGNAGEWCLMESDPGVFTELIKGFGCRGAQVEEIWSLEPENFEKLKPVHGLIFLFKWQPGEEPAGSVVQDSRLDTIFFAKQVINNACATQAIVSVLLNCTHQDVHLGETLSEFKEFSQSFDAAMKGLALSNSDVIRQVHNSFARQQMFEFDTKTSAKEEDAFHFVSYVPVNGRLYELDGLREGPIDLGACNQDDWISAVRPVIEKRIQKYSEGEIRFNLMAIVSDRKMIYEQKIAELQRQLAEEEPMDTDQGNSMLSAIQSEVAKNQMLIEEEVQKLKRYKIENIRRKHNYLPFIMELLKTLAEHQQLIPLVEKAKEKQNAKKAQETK
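Assay system: Proteasome-bound UCH37. Buffer or medium: pH 7.4 Tris-HCl (50 mM) with ovalbumin, ATP-MgCl2, DTT. Incubation: 30 min preincubation with enzyme, 25 min cleavage at room temperature. Measured by: fluorescence, ex 355 nm, em 460 nm. Read-out basis: percent inhibition. Control set: wells without proteasome as full block, compound-free enzyme plus substrate as uninhibited.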
FGF22 binding – FGF22 (human) thermal shift binding; Q9HCT0; recombinant FGF22 thermal shift, SYPRO orange fluorescence; percent of sucrose octasulfate shift, DMSO zero; calls only at 9.99 µM; 340,000 tested, 1.5% active; AID 651658;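 active = melting point raised past a set limit in the mean and every replicate; inconclusive = no clear call; three in four hits are not shown here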
Target sequence (Q9HCT0 whole entry, looked up): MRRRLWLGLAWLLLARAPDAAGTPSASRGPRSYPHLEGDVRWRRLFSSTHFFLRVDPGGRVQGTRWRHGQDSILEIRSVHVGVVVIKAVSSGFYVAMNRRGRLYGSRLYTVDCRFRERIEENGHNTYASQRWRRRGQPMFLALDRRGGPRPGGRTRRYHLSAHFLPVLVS
Beta apoptosis – beta cell apoptosis inhibition; INS-1E cytokine-induced death, ATP luminescence, 48 h; percent of positive-control rescue, neutral wells zero; protection from apoptosis, % (test concentration not listed); 300,000 tested, 0.8% active;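 active = all replicates at 75% or more, or half of them and the mean; inconclusive = half reach 75% but not the mean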;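 note: 0% = cytokine-treated negative control wells and 100% = positive control rescue; higher means more ATP so stronger rescue from cytokine killing; wells of about 40 µL received 100 nL stock; the first replicate is given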
Ecoli rRNA inh – inhibitors of bacterial rRNA selective over humanized ribosomes; GFP signal change (wild-type ribosome), % (no concentration beside the values); E. coli WT GFP vs humanized-ribosome RFP mutants, fluorescence, 24 h; hits give low values; DMSO median 0, no signal -100; 350,000 tested, 1.6% active;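 active = significant combined selectivity score with lowered wild-type GFP, culture density cut under 30%, mutant RFP and density less affected; inactive = any of these conditions unmet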; note: one replicate is shown; some compounds called inactive have numbers as strong as hits
AF4-AF9 inh – blocks AF4 peptide binding to human AF9; P42568; AlphaScreen, biotin-AF4 peptide binding to FLAG-AF9; inhibition, % at 10 µM; 350,000 tested, 0.47% active;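 active = every replicate reaching a set inhibition limit, whatever the replicate mean, cut at about 25% in these data; inconclusive = mean inhibition reaches that limit but some replicates miss it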;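 note: 0% = plate neutral control median and 100% = total signal loss; the record names both 10 and 1 µM as test concentration; the first replicate is given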
Target sequence (P42568 whole entry, looked up): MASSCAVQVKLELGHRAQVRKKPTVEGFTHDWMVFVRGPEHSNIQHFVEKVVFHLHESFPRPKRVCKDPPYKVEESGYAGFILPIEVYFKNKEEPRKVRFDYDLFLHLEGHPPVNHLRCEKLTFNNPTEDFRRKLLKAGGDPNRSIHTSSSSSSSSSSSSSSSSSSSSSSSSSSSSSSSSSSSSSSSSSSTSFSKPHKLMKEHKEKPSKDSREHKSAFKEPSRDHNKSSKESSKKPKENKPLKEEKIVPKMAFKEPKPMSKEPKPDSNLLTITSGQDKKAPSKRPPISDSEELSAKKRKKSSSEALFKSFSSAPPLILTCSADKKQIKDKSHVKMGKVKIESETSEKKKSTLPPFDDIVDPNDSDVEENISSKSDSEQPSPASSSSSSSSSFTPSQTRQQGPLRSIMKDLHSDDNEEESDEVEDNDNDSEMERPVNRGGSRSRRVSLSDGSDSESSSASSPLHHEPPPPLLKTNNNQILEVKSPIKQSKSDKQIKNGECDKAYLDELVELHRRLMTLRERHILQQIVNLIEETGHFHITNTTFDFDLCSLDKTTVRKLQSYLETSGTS
Ecoli rRNA inh OD600 – further read-out of Ecoli rRNA inh, marked with its call; OD600 change, %; measured here: OD600 growth;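 optical density of the mix in the first replicate; 0 = DMSO median and -100 = no signal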
Ecoli rRNA inh RFP – further read-out of Ecoli rRNA inh, marked with its call; RFP signal change, %; measured here: RFP humanized mutant strains;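 first replicate; 0 = DMSO median and -100 = no signal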
* hit, by the source's call; i = inactive; ? = inconclusive; . = no result given; & = joins results of further samples. An excerpt. The share of hits here may be higher or lower than overall.

SMILES	Ecoli growth	A1 inh	T cruzi inh	UCH37 inh	FGF22 binding	Beta apoptosis	Ecoli rRNA inh	Ecoli rRNA inh OD600	Ecoli rRNA inh RFP	AF4-AF9 inh
O=[N+]([O-])c1ccc2nonc2c1Nc1cccc(F)c1	0.65	0.4	7	4.7	i	2	16	11	-3.9	6.8
COc1ccnc(N=CNOCc2ccc(C)cc2)c1C#N	0.75	0.3	-7	1.2	.	1	.	.	.	.
CCCCOC(=O)c1ccc(NC(=O)COC(=O)CSc2nc(C)cc(C)n2)cc1	0.68	-0.4	-2	0.3	.	-6	.	.	.	.
C/C(CC(=O)Nc1cccc(Cl)c1Cl)=N\NC(=O)c1ccccc1Br	.	-0.8	-15	.	i	-5	14	2	2.4	-1.0
CCOC(=O)C1=C(CS(=O)(=O)c2ccc(C)cc2)NC(=O)NC1c1cc(OC)c(OC)c(OC)c1 (centres undefined)	0.63	1.3	11	2.1	i	-3	2	-2	3.1	-1.8
Cc1ccc(S(=O)(=O)N2CCOC23CCN(C(=O)c2ccc(Cl)cc2Cl)CC3)cc1	0.69	1.6	1	1.2	i	-14	-1	4	18	3.9
O=C(COC(=O)c1cc(=O)[nH]c2ccccc12)NC1CCCC1	0.68	1.9	-8	-42	i	-10	9	9	0.9	-1.7
CCOC(=O)c1sc(NC(=O)c2c(C)nn(Cc3ccccc3)c2C)cc1C	0.76	-0.5	.	-4.8	.	88*	.	.	.	.
COc1ccc(CNCC(=O)Nc2cc(OC)cc(OC)c2)cc1	0.6	0.7	10	4.4	i	4	-6	2	7.0	6.6
O=C(C1CCN(S(=O)(=O)c2cccc3nsnc23)CC1)N1CCc2ccccc21	0.74	0.1	-1	0.5	.	-3	.	.	.	.
Cc1nn(CCc2nn[nH]n2)c2nc(C(F)(F)F)cc(C(F)(F)F)c12	0.7	-1.3	-4	-86	.	4	.	.	.	.
CCc1ccc(CN(C)CC(=O)Nc2ccc3c(c2)CCC3)cc1	0.65	0.2	25	4.3	.	-5	-60	-80	-21	-0.8
COc1ccc(CC(=O)N/N=C/c2cc(Br)cs2)cc1OC	.	0.4	1	.	i	-1	5	13	3.3	-3.6
Cc1nn(-c2ccccc2)c(Cl)c1C(=O)N(C)CC(=O)Nc1cccc(F)c1	0.7	0.9	-2	5.0	i	-2	3	3	-2.1	2.9
COCCNc1ccnc2c(Cl)cccc12	0.71	0.4	-6	5.5	i	0	9	7	0.4	0.7
O=[N+]([O-])c1ccc(-c2nc(NCC3CCCO3)c3ccccc3n2)cc1 (centres undefined)	0.72	-1.0	12	6.2	i	4	0	-1	-4.1	.
COc1ccc(N2CCN(C(=O)CNC(=O)c3ccc(Br)o3)CC2)cc1	0.68	1.1	-3	-1.7	i	3	3	4	0.7	0.8
Cc1ccc(C(=O)OCC(=O)NC2CC2)s1	0.72	-0.3	.	0.6	i	-1	8	16	-0.5	5.2
COc1cccc(CNC(=O)CN(C)S(=O)(=O)c2ccc(Br)s2)c1	0.69	-0.4	-1	1.2	i	-5	-7	6	4.2	-1.6
Cc1nc(SCC(=O)NC(C)(C#N)C2CC2)c2c(-c3cccs3)csc2n1 (centres undefined)	0.69	0.7	32	0.4	i	-10	-43	-66	-14	-2.3

Nothing new here: an excerpt of the list.
SMILES	Ecoli growth	A1 inh	T cruzi inh	UCH37 inh	FGF22 binding	Beta apoptosis	Ecoli rRNA inh	Ecoli rRNA inh OD600	Ecoli rRNA inh RFP	AF4-AF9 inh
COc1ccnc(N=CNOCc2ccc(C)cc2)c1C#N	0.75	0.3	-7	1.2	.	1	.	.	.	.
CCCCOC(=O)c1ccc(NC(=O)COC(=O)CSc2nc(C)cc(C)n2)cc1	0.68	-0.4	-2	0.3	.	-6	.	.	.	.
C/C(CC(=O)Nc1cccc(Cl)c1Cl)=N\NC(=O)c1ccccc1Br	.	-0.8	-15	.	i	-5	14	2	2.4	-1.0

(continued)
SMILES	Ecoli growth	A1 inh	T cruzi inh	UCH37 inh	FGF22 binding	Beta apoptosis	Ecoli rRNA inh	Ecoli rRNA inh OD600	Ecoli rRNA inh RFP	AF4-AF9 inh
CCCc1cc(C(=O)N2CCCC(Nc3ccc(C)c(C)c3)C2)n(C)n1 (centres undefined)	0.73	1.2	16	1.2	i	0	-2	-8	1.8	3.4
C/C(=N\OCC(=O)Nc1c(C)cc(C)cc1C)c1ccc2c(c1)OCCO2	.	-0.7	-2	.	i	0	4	-4	6.6	0.2
Cc1nc2cc(NC(=O)N3CCC(c4ccccc4)C3)ccc2n1C (centres undefined)	0.7	-0.3	15	2.3	i	-4	-3	2	-0.9	-65
N#Cc1ccc(-c2ccc(F)cc2)nc1Sc1ccccc1	0.73	1.3	6	3.7	.	3	.	.	.	.
CN(c1ccccc1C(=O)N1CCN(c2ccccc2F)CC1)S(=O)(=O)c1ccccc1	0.7	0.5	13	0.6	i	-5	-4	-15	2.2	-1.7
COc1ccc(CCC(=O)NCc2ccco2)cc1	0.71	-0.1	-7	2.3	.	-3	.	.	.	.
CCN(CC(=O)Nc1c(F)cccc1F)C(=O)CNC(=O)c1ccc(Br)o1	0.66	-0.5	-3	5.0	i	-2	6	6	0.6	-1.4
Cc1c(C(=O)CN2CCCC(C)(C)C2)c2ccccc2n1C	0.64	0.4	17	3.9	i	1	7	6	0.2	-1.6
COc1ccc2c(c1)-c1nc(/N=C/c3c(O)ccc4ccccc34)sc1CC2	.	.	-2	.	i	.	-17	-10	18	12
NS(=O)(=O)c1ccc(CCNC(=O)c2ccccc2Cc2ccccc2)cc1	0.7	0.0	-18	0.1	i	-2	5	13	-4.3	0.7
CS(=O)(=O)N(CC(=O)N1CCN(Cc2ccccc2)CC1)c1ccccc1Br	0.7	0.5	-8	3.0	i	0	-2	-1	-1.2	1.3
O=C(Cn1nc(C(F)(F)F)c2c1CCCC2)Nc1ccc2c(c1)OCO2	0.67	-0.3	21	1.7	.	6	.	.	.	.
C/C(=N\NC(=O)c1nnn(-c2nonc2N)c1CN1CCCCC1)c1ccccc1O	.	0.4	0	.	i	28	-17	-25	0.0	1.7
Cc1ccc(C(C)C)c(OCC(=O)Nn2c(=O)[nH]c3ccccc3c2=O)c1	0.66	0.0	-9	1.7	.	-6	.	.	.	.
Cc1ccc(-c2nn(C)c(=O)c3ccccc23)cc1S(=O)(=O)NCCN1CCOCC1	0.74	0.0	2	-3.5	.	-2	.	.	.	.
Cc1onc(-c2ccccc2Cl)c1C(=O)N(C)Cc1ccccc1	0.68	1.2	0	3.0	i	-3	-5	-11	9.0	-2.8
CC(=O)c1ccc(NC(=O)C(C)Sc2nnc3ccccn23)cc1 (centres undefined)	0.7	-0.5	.	-2.3	i	-4	-2	1	-0.8	1.4
CC1=C(C(=O)N2CCOCC2)C(c2ccc(-c3ccccc3)cc2)NC(=S)N1 (centres undefined)	0.71	-0.4	5	0.0	i	-5	2	-9	2.4	-7.4
C=CCC1(N(C(C)=O)c2ccccc2)CCCCC1	0.67	-0.4	-5	3.2	i	0	6	11	-1.8	-3.6
O=C(C1CCCN(S(=O)(=O)c2cccs2)C1)N1CCc2ccccc2C1 (centres undefined)	0.72	0.0	.	9.1	.	-1	.	.	.	.
CCOc1ccc(C2=NNC(c3cccs3)=Nc3ccc(OC)cc32)cc1	0.71	0.5	22	0.5	.	9	.	.	.	.
COc1ccc(N/C(C)=C/C(=O)c2ccccc2)cc1	0.72	0.3	12	5.4	i	-11	9	9	-0.8	-9.5
COc1ccc(/C=C(\NC(=O)c2ccc(OC)cc2)C(=O)Nc2ccccc2C(=O)O)cc1	0.67	0.5	4	11	i	-1	-2	4	-1.0	-0.8
CC(C)OCCCNS(=O)(=O)c1ccc2c(c1)oc(=O)n2C	0.71	-0.2	-6	1.5	i	2	6	6	-0.6	-3.6
COP(=O)(OC)C(Nc1ccc(Cl)cc1)c1ccccc1 (centres undefined)	0.67	0.1	-4	-2.6	i	.	1	0	2.2	-0.2
Cc1ccc(N2C(=O)[C@@H]3[C@H](C2=O)C2c4ccccc4C=NN2[C@@H]3C(=O)c2ccc(Cl)cc2)cc1 (some centres undefined)	0.75	-1.3	13	1.6	.	1	.	.	.	.
COCCNC(=O)c1ccccc1NC(=O)c1ccccc1N(C)S(=O)(=O)c1ccc(C)cc1	0.74	2.2	.	-0.5	.	0	.	.	.	.
CCN(Cc1cc2ccccc2[nH]c1=O)C(=O)C1CCCCC1	0.68	-0.3	3	0.3	.	1	.	.	.	.
C=CCn1c(C)cc(C(=O)COC(=O)c2n[nH]c(=O)c3ccccc23)c1C	0.64	-5.5	.	1.6	i	-1	-9	-5	0.3	-2.4
CCOc1ccc(C(C)NC(=O)Nc2ccccc2C(=O)OC)cc1 (centres undefined)	0.7	-0.4	-7	-6.7	.	1	.	.	.	.
Nc1cc(=O)[nH]c(=O)n1Cc1ccccc1	0.64	0.0	-9	1.4	i	-2	0	7	-1.9	-1.2&-1.3
CCn1ncc(C2=NOC(C(=O)Nc3c(C)nn(Cc4ccc(F)cc4)c3C)C2)c1C (centres undefined)	0.72	0.8	-13	7.8	i	.	5	8	-0.9	-6.0
Cc1cccc(N2CCN(c3nnc(C(F)(F)F)s3)CC2)c1	0.66	0.4	-1	4.4	i	8	3	-3	-2.6	3.9
CCNS(=O)(=O)c1ccc(S(=O)(=O)N(Cc2ccccn2)C2CCCCC2)cc1	0.7	0.0	12	4.2	.	0	.	.	.	.
Cc1ccc(-c2nnc(Nc3ccc(CC(N)=O)cc3)c3ccccc23)cc1S(N)(=O)=O	0.65	-1.0	8	1.1	i	5	-9	-5	-0.3	-0.8
OCCNc1cc(-n2nc(-c3ccccc3)cc2-c2ccccc2)ncn1	0.7	0.4	-8	2.8	.	0	.	.	.	.
Oc1ccc(Cl)cc1CNCc1cccc2ccccc12	0.64	0.6	.	2.5	i	-3	-24*	-15*	-0.9*	-7.6
Cn1cccc1/C=N/NC(=O)CNc1cccc2ccccc12	.	1.0	-29	.	i	-8	-5	10	-0.5	?
Fc1ccccc1N1CCN(Cc2nc(-c3ccc(Cl)cc3Cl)no2)CC1	0.65	-0.9	.	-0.1	.	0	.	.	.	.
CC1CN(C(=S)Nc2cccc(F)c2)CC(C)O1 (centres undefined)	0.64	0.5	-15	0.3	i	5	12	16	2.4	-1.0

4 entries from above, sorted by the value under UCH37 inh, descending:
| canonical_smiles | Ecoli growth | UCH37 inh | FGF22 binding | Ecoli rRNA inh | Ecoli rRNA inh OD600 | Ecoli rRNA inh RFP | AF4-AF9 inh |
| --- | --- | --- | --- | --- | --- | --- | --- |
| Nc1cc(=O)[nH]c(=O)n1Cc1ccccc1 | 0.64 | 1.4 | i | 0 | 7 | -1.9 | -1.2&-1.3 |
| Cc1ccc(-c2nnc(Nc3ccc(CC(N)=O)cc3)c3ccccc23)cc1S(N)(=O)=O | 0.65 | 1.1 | i | -9 | -5 | -0.3 | -0.8 |
| CCN(Cc1cc2ccccc2[nH]c1=O)C(=O)C1CCCCC1 | 0.68 | 0.3 | . | . | . | . | . |
| Fc1ccccc1N1CCN(Cc2nc(-c3ccc(Cl)cc3Cl)no2)CC1 | 0.65 | -0.1 | . | . | . | . | . |
